VDR inh: blocks the human vitamin D receptor; AID 504847; P11473; VDR-SRC2-3 peptide fluorescence polarization, 2 h; hit rate 0.93% among 400,000; Potency, µM, for inactives: max response, negative = inhibition, most hits filed as inhibitors; active = well fitted inhibition curve with a large enough effect; inconclusive = small, poorly fitted or top-dose-only effect, or another doubt; inactive = no such curve, though single readings can be large or run the other way; note: series mostly up to about 120 µM
Target sequence (P11473 whole entry, looked up): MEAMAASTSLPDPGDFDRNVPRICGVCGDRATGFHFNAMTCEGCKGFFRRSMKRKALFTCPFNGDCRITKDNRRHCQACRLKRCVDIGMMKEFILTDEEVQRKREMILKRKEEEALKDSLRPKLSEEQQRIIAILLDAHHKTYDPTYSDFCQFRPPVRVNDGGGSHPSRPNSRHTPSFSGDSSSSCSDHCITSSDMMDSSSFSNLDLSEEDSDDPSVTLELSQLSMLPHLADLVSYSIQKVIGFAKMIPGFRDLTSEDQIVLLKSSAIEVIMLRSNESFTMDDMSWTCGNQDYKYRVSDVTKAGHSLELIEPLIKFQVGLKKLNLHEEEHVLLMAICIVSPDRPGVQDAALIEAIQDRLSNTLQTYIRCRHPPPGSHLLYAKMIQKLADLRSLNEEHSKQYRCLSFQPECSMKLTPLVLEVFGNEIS
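Fluorescence polarization assay measuring small-molecule disruption of VDR binding to the coregulator peptide SRC2-3. Compounds were pin-transferred (23 nl) into the reagent mix and incubated 2 h at room temperature before reading.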
Numbers without * were called inactive; ? = inconclusive; & = joins results of further samples. % is set by controls: 0 for no effect and ±100 for the full control effect; potency is the fitted concentration of half-maximal effect. Only part of the results is shown; count on the stated rates, not on these rows.

Start of the listing, in advance:
SMILES | VDR inh
O=C(Nc1cccc([N+](=O)[O-])c1)C1C2CCCCC21 (stereo not given) | -13.6%
CC(C)(C)C1CCc2onc(C(=O)NC3CCCC3)c2C1 (stereo not given) | -10.5%

Results (from the top)
SMILES | VDR inh
O=C(Nc1cccc([N+](=O)[O-])c1)C1C2CCCCC21 (stereo not given) | -13.6%
CC(C)(C)C1CCc2onc(C(=O)NC3CCCC3)c2C1 (stereo not given) | -10.5%
CC1CCN(C(=O)C(=O)c2cn(CC(=O)N3CCCC3)c3ccccc23)CC1 | 5.9%
Cc1nccn1Cc1ccccc1 | -1.5%
O=C(CSc1nc2c(oc3ccccc32)c(=O)n1-c1ccccc1F)Nc1ccccc1 | -2.2%
CCC(C)n1ncn(-c2ccc(N3CCN(c4ccc(O)cc4)CC3)cc2)c1=O (stereo not given) | -10.5%
CNc1c(NS(=O)(=O)c2cc(Cl)ccc2OC)c(=O)oc2ccccc12 | -1.7%
O=C(NN=C1CCCCCCC1)c1ccc2ccccc2n1 | 9.9%
CS(=O)(=O)c1cccc(C(=O)OCC(=O)NCc2cccs2)c1 | -3.0%
Cc1cc(O)c(C(C)C)cc1NC(=O)Nc1cc(Cl)ccc1Cl | 2.7%
Cc1ccc(Cl)c(N/C=C/C(=O)c2ccccc2)c1 | 2.4%
CC(=O)N1c2ccc(S(=O)(=O)NCC3CCC(C(=O)Nc4ccc(C)c(C)c4)CC3)cc2CC1C (stereo not given) | 1.3%
O=C(CNC(=O)C1CCCCC1)NCCCO | 11.0%
COc1cc2c(cc1OC)CN(C(=O)CSc1nc(C)cc(C)c1C#N)CC2 | 13.9%
COc1ccc(C2(CNC(=O)/C=C/c3ccco3)CCCC2)cc1OC | ?
C=CCN1C(=O)c2ccc(C(=O)N(CC)CC(=O)Nc3cc(Cl)ccc3C)cc2C1=O | -14.6%
CCOc1ccccc1Nc1ccnc2cc(Cl)ccc12 | 1.9%
Cc1sc2nc(CSCC(=O)Nc3ccc(N4CCOCC4)cc3)[nH]c(=O)c2c1C | ?
O=C(COc1cccc(C(F)(F)F)c1)Nc1ccc2[nH]ncc2c1 | -18.4%
COc1ccc(NC(=O)NNC(=O)COc2ccc(Cl)cc2C)cc1OC | -6.6%
CCc1ccc(C(=O)Nc2ccc3c(c2)n(C)c(=O)n3C)cc1 | 0.6%
COc1ccc(OCC(=O)NNC(=S)NC(=O)c2ccc(Br)o2)cc1 | -6.9%
CC(=O)[C@H]1CC[C@@H]2[C@H]3CC=C4C[C@@H](O)CC[C@]4(C)[C@H]3CC[C@]12C | -5.5%
CCOc1ccc(N2C(=O)CC(Sc3nc(C)cc(C)c3C#N)C2=O)cc1 (stereo not given) | -4.1%
FC(F)(F)c1cccc(Cc2noc(CN3CCSCC3)n2)c1 | -9.3%

The listing continues.
SMILES | VDR inh
O=C(CCN1C(=O)c2ccccc2C1=O)NCCN1CCOCC1 | -2.0%
O=C(c1ccccc1)n1c(=O)c(F)cn(COCCBr)c1=O | 2.2%
COc1cc(Cl)c(C)cc1NC(=O)C1CCN(c2nc3ccccc3n3cccc23)CC1 | 8.5%
Cc1oncc1C(=O)Nc1ccc2ccccc2c1 | -3.5%
O=C(NCCN1CCOCC1)c1cc2c(=O)n3ccccc3nc2n1Cc1ccccc1 | 0.4%
CC[C@@H](C)[C@@H](C(=O)N1CCN(C(=O)OC(C)(C)C)CC1)n1cc(CCCN=C(NC(=O)OC(C)(C)C)NC(=O)OC(C)(C)C)nn1 | -9.7%
Cc1ccnc(N2CCC(C(=O)Nc3ccc4c(c3)OCCO4)CC2)n1 | ?
CCn1cc(C(=O)N2CCN(c3cccc(C(F)(F)F)c3)CC2)c2cc(OC)c(OC)cc2c1=O | ?
Cn1c(=O)c2cc(S(=O)(=O)NCCC(=O)NCCC3=CCCCC3)ccc2n(C)c1=O | -0.6%
Cc1cc(OCC(=O)NCC2(N3CCOCC3)CCCCC2)ccc1Cl | 11.2%
O=C(c1cc(N2C(=O)C3C4CCC(C4)C3C2=O)ccc1Cl)N1CCN(c2ccccc2)CC1 (stereo not given) | -0.8%
COc1ccc(C(=O)N2c3ccccc3C(=O)OC2c2ccc3c(c2)OCO3)cc1 (stereo not given) | -22.8%
CCN(C(=O)CN1C(=O)c2ccc([N+](=O)[O-])cc2C1=O)C1CCS(=O)(=O)C1 (stereo not given) | -9.5%
Cc1cc(=O)n(CC(=O)NCCC(C)C)c2c1c(C)nn2C | 3.8%
Cc1ccccc1NC(=O)c1ccc(CSc2ncccn2)cc1 | 17.8%
O=C(Nc1ccc(N2CCOCC2)cc1N1CCOCC1)c1ccco1 | ?
O=C(O)C1CC=C(Cl)CC1C(=O)NCc1ccccc1 (stereo not given) | -5.3%
O=C(O)c1cc(Cl)ccc1NC(=O)C1CCCO1 (stereo not given) | -6.6%
CCOC(=O)c1c(Nc2cc(C)cc(C)c2)nnc(-c2ccccc2)c1-c1ccccc1 | -5.5%
CCN(C(=S)Nc1ccc(OC(F)F)cc1)C1CCCCC1 | -18.0%
O=C(Nc1nc2ccc(Cl)cc2s1)c1ccc(Br)o1 | 3.4%
O=C(N1CCN(c2ccccc2)CC1)C1(S(=O)(=O)c2ccc(Cl)cc2)CC1 | -0.6%
CNc1sc(C(=O)c2ccc(F)cc2)c(N)c1-c1nc2ccccc2s1 | -14.9%
COc1cc(C2Nc3ccc4ncccc4c3C3=C2C(=O)CCC3)cc(OC)c1O (stereo not given) | 15.0%
COc1ccccc1-n1cnc2cc(NC(=O)c3ccco3)ccc21 | -17.7%

Seven of the compounds above, in markdown.
| Structure | VDR inh |
| --- | --- |
| CC(=O)[C@H]1CC[C@@H]2[C@H]3CC=C4C[C@@H](O)CC[C@]4(C)[C@H]3CC[C@]12C | -5.5% |
| CCOc1ccc(N2C(=O)CC(Sc3nc(C)cc(C)c3C#N)C2=O)cc1 (stereo not given) | -4.1% |
| FC(F)(F)c1cccc(Cc2noc(CN3CCSCC3)n2)c1 | -9.3% |
| O=C(CCN1C(=O)c2ccccc2C1=O)NCCN1CCOCC1 | -2.0% |
| O=C(c1ccccc1)n1c(=O)c(F)cn(COCCBr)c1=O | 2.2% |
| COc1cc(Cl)c(C)cc1NC(=O)C1CCN(c2nc3ccccc3n3cccc23)CC1 | 8.5% |
| Cc1oncc1C(=O)Nc1ccc2ccccc2c1 | -3.5% |

Retrieved by compound from the list above, 3 records:
SMILES | VDR inh
O=C(CCN1C(=O)c2ccccc2C1=O)NCCN1CCOCC1 | -2.0%
COc1cc(Cl)c(C)cc1NC(=O)C1CCN(c2nc3ccccc3n3cccc23)CC1 | 8.5%
O=C(Nc1ccc(N2CCOCC2)cc1N1CCOCC1)c1ccco1 | ?

Next part
SMILES | VDR inh
O=S(=O)(c1ccc2ccccc2c1)N1CCN(S(=O)(=O)N2CCCCC2)CC1 | 10.8%
CC1(C)Cc2c(c(=S)nc(-c3ccccc3)n2CCN2CCOCC2)CO1 | 8.4%
Cc1nc(SCC#N)c2c(C)c(C)sc2n1 | 6.9%
COc1cnn(C(C)(C)C)c(=O)c1Cl | -4.3%
COc1ccc(N2CCN(C(CNC(=O)C(C)(C)C)c3cccnc3)CC2)cc1 (stereo not given) | 5.7%
COC(=O)/C=C/C(=O)Nc1cccc(C(F)(F)F)c1 | -20.1%
CCOC(=O)CNC(=S)n1ncnc1N | -13.8%
C/C=C/c1ccc(OCC(=O)Nc2cc(OC)c(OC)c(OC)c2)c(OC)c1 | 11.0%
CC(=O)c1c(C)[nH]c(C(=O)Nc2ccc(F)cc2F)c1C | 7.2%
CSc1nsc(SC)c1C(=O)Nc1ccc(C)cc1 | 6.3%
CCCCOc1cccc(C(=O)N(Cc2ccc(C)o2)c2ccccn2)c1 | 1.9%
CCN(CC)C(=O)C(=O)N/N=C/c1cccc(Br)c1 | 8.8%
COc1cccc(OC)c1C(=O)Nc1cccc(C(C)=O)c1 | 6.1%
CC12CCC(C(=O)N3CCN(C(c4ccccc4)c4ccccc4)CC3)(OC1=O)C2(C)C (stereo not given) | 18.5%
Cc1cccc(NC(=O)CCC(=O)Nc2nnc(C(F)(F)F)s2)c1 | -13.7%
COc1ccc(C(=O)Nc2cccc(C(=O)O)c2)cc1S(=O)(=O)N1CCCC1 | -0.2%
CCCCNC(=S)N1CCN(c2nc3ccccc3s2)CC1 | ?
CC(Cc1ccccc1)C(=O)NCc1ccccn1 (stereo not given) | -15.2%
CN(C)CCNCc1ccccc1OC1CCCC1 | -3.3%
CC(=O)Cc1nsc(NC(=O)c2ccc(-c3ccccc3Cl)o2)n1 | 6.3%
Cc1cccc(-n2c(C)cc(/C=N/NC(=O)c3cccc([N+](=O)[O-])c3C)c2C)c1 | 4.2%
COc1ccc(-n2ccc(-c3nn(-c4cccc(C(F)(F)F)c4)ccc3=O)n2)cc1 | 13.0%
COc1ccc(Oc2ncc3nc(-c4ccc(OC)cc4)c(=O)n(Cc4cccs4)c3n2)cc1 | -14.5%
CS(=O)(=O)N1CCC(C(=O)N2CCN(C(c3ccccc3)c3ccccc3)CC2)CC1 | -0.3%
O=C(NC(=S)Nc1ccc(S(=O)(=O)Nc2nccs2)cc1)c1ccccc1F | ?

Remaining list, next part:
SMILES | VDR inh
CCCCOc1ccc(C(=O)N/C(=C\c2cccc([N+](=O)[O-])c2)C(=O)OCc2ccco2)cc1 | -0.1%
CC(C)=C(NC(=O)c1ccccc1)C(=O)N1CCOCC1 | -5.6%
CC(C)/C=N/Nc1nc2c(c(=O)n(C)c(=O)n2C)n1C | -7.6%
CC1CCCc2sc3nc(N4CCN(CCO)CC4)n4ncnc4c3c21 (stereo not given) | -7.6%
NNC(=O)c1ccc(COc2ccc3ccccc3c2)o1 | -7.9%
CC(C#N)Sc1nc2ccccc2c(=O)n1-c1ccccc1 (stereo not given) | 0.6%
FC(F)(F)c1ccccc1-n1ccnc1 | -1.7%&4.5%&-13.4%
COc1ccc(S(=O)(=O)N(C)CC(=O)NC2CC2)cc1 | 1.9%
O=C(Nc1ccc(-c2csc(Nc3ccc(Cl)cc3)n2)cc1)c1cccc(C(F)(F)F)c1 | 10.5%
NC(=O)c1oc2ccc(Cl)cc2c1NC(=O)CN1CCOCC1 | 3.5%
COc1cc(C(=S)N2CCOCC2)cc(OC)c1OC(=O)c1cccc(C)c1 | -27.4%
CCCCCn1c(N)c(-c2nc3ccccc3o2)c2c([N+](=O)[O-])nn(C)c(=O)c21 | -14.1%
O=C(CC1(O)C(=O)N(Cc2ccccc2)c2ccc(Br)cc21)c1ccccc1 (stereo not given) | -8.8%
COc1ccc(-c2nc3c(c(=O)[nH]c(=O)n3Cc3ccccc3)n2C)cc1 | -5.2%
COc1cc(NC(=O)c2cccnc2)c(Cl)cc1NC(=O)c1ccccc1 | -7.5%
O=C(NCc1cccnc1)/C(=C/c1ccc(Cl)cc1)NC(=O)c1ccccc1 | -19.7%
COc1ccc(C2Nc3ccccc3C(=O)N2c2ccc(Cl)cc2)cc1Cn1cc([N+](=O)[O-])cn1 (stereo not given) | 8.6%
COc1ccc(/C=C\C(=O)NCC(=O)N/N=C/c2ccc(O)cc2O)cc1 | -14.3%
CCC(C(=O)Nc1cnccn1)c1ccccc1 (stereo not given) | 21.8%
COc1ccc2c(c1)c(=O)c(S(=O)(=O)c1ccc(Cl)cc1)cn2C | -6.6%
O=C(N/N=C/c1ccncc1)c1cccc(S(=O)(=O)Nc2ccc(Cl)cc2)c1 | -1.0%
O=C(NNC(=O)C1COc2ccccc2O1)c1cccc([N+](=O)[O-])c1 (stereo not given) | ?
CCCN1C(=O)/C(=C/c2ccco2)SC1=Nc1ccc(OC)cc1 | -7.4%
Cc1nc(C)n(C)c(=O)c1-c1ccccc1 | -4.6%
O=C(CCCCn1c(=O)c2ccccc2n(Cc2ccc(F)cc2Cl)c1=O)NCc1ccco1 | -11.4%

Later entries.
SMILES | VDR inh
Cc1ccc(CN(Cc2ccco2)c2cnc(S(C)(=O)=O)nc2C(=O)Nc2ccc(Br)cc2)o1 | -0.5%
CCOc1ccc(NC(=O)c2ccc(NC(=O)COC(=O)Cc3ccc(OC)cc3)cc2)cc1 | 22.8%
COCC(C)NC(=O)c1cc(-c2ccc(O)cc2)on1 (stereo not given) | -11.4%
Cc1ccsc1/C=N/n1c(=S)[nH]nc(C)c1=O | -3.1%
COC(=O)c1cc2occc2n1Cc1ccc(Cl)cc1 | 6.3%
CCOC(=O)c1ccc(NS(=O)(=O)c2c(N)n(C)c(=O)n(C)c2=O)cc1 | 0.7%
O=C(C1CCN(S(=O)(=O)c2cccc([N+](=O)[O-])c2)CC1)N1CCOCC1 | -16.6%
CCn1c(C)c(C)c2cc(C(=O)N3CCN(c4ccccc4)CC3)ccc21 | 4.6%&12.4%
O=C(NCC(c1cccs1)N1CCc2ccccc21)c1ccccc1 (stereo not given) | -0.2%
CC(C(=O)N1CCN(Cc2ccccc2)CC1)c1ccc([N+](=O)[O-])cc1 (stereo not given) | -24.3%
O=C(CSc1ncccn1)NCc1ccc(Cl)cc1 | -10.5%
COC(=O)N/N=C\c1c(C)nn(-c2ccccc2)c1Cl | -0.1%
COc1ccc(C(=O)n2cnc3ccccc32)cc1Br | 2.3%
CC(C)[C@@H]1NC(=O)[C@H](CCCCN)NC(=O)[C@@H](Cc2c[nH]c3ccccc23)NC(=O)[C@H](Cc2ccc(O)cc2)NC(=O)[C@@H](NC(=O)[C@H](N)Cc2ccccc2)CSSC[C@@H](C(=O)N[C@@H](Cc2c[nH]c3ccccc23)C(N)=O)NC1=O | 1.5%
CCN(CC)CCNC(=O)c1c(C)oc2ncnc(N3CCOCC3)c12 | 14.7%
Nc1nc(C2CCOCC2)cs1 | 13.2%
O=C(CCNS(=O)(=O)c1cccc2nsnc12)Nc1ccc(F)cc1 | -7.9%
O=C(NN=C1CCCC1)c1[nH]c2ccc(Cl)cc2c1-c1ccccc1 | ?
COc1ccc2c(Sc3ccc(Cl)cc3)c(C(=O)N3CCC(C)CC3)[nH]c2c1 | -5.6%

Screening results (PubChem)
